Source: PubChem (PCMD)
RmlC RmlD mix: RmlC and RmlD coupled enzyme inhibitors, primary screen, biochemical, 384-well, compound mixtures, retest; inhibition, % at 5.5 µM; RmlC/RmlD coupled enzyme inhibition, 384-well mixture HTS; 110,000 compounds, 0.39% hits; in the data active means inhibition above about 30%, passing the limit was not always enough; only retested compounds are shown here; further: strong numbers were not always called active
RmlC RmlD mix retest: further read-out of RmlC RmlD mix, marked with its call; inhibition, %; measured here: mean retest inhibition;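 single compounds in two wells; values far above 100% likely come from compound fluorescence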
* marks the source's active call; other numbers are inactive results; i = inactive.

SMILES	RmlC RmlD mix	RmlC RmlD mix retest
Cc1cccc(-n2c(N)cc(=O)nc2SCC(=O)Nc2cc(C)on2)c1	51.8	2.9
CC(=O)NCCc1nc2ccccc2[nH]1	160.6	-10.1
CCOc1ccccc1CNc1ccc(N2CCOCC2)c(C(=O)O)c1	101.5	-6.7
CN(CCO)c1cc(Sc2nc3ccccc3s2)c2nonc2c1[N+](=O)[O-]	32.0	-0.7
CCOC(=O)C1(C)NC(c2ccco2)C2C(=O)N(c3ccc(C)cc3)C(=O)C21 (stereo not drawn)	87.2	-1.6
Clc1ccc(-c2cn3cccnc3n2)cc1	39.7*	82.9*
CCOc1cc(-c2cc(-c3ccc(C)cc3)nc(N)c2C#N)ccc1O	30.4*	73.0*
Cc1cc(OCc2nn[nH]n2)c2c3c(c(=O)oc2c1)CCC3	54.3	34.8
COc1ccc(CN(CC(=O)NCc2ccco2)C(=O)CCC(=O)Nc2nccs2)cc1	142.5	-2.6
Cn1c(CCc2ccccc2)nnc1SCC(=O)N1CCCC1	34.6	-5.2
COc1ccc(/C=C2/SC(c3ccc(C)cc3)=NC2=O)cc1OC	45.1	4.8
COCC(C)OC(=O)c1c(N)n(CC(C)C)c2nc3ccccc3nc12 (stereo not drawn)	136.1	22.3
C=CCn1c(SCC(=O)Nc2cccc3ccccc23)nc(O)c(CC)c1=O	95.7	-5.0
O=C(NCCC1=CCCCC1)c1coc(=O)c(Br)c1	61.0	8.0
O=C1CCCCCC1C1(O)C(=O)Nc2ccccc21 (stereo not drawn)	61.2	-12.5
C#CCOCCOCCOCCNc1nc(N2CCOCC2)nc(N2CCN(C(=O)[C@H](CCCCN)n3cc([C@@H](N)C(C)CC)nn3)CC2)n1 (stereo partly drawn)	85.0	-6.9
Cc1ccccc1OC(C)C(=O)NC1CCCC1 (stereo not drawn)	75.6	-10.1
COC(=O)Cc1n[nH]c(=S)[nH]c1=O	30.8	-7.2
Cc1ccc(-c2nc3ncccn3c2NC(=O)C2CC2)cc1	31.2	11.2
CCN(CC)CCN1C(=O)C(=O)/C(=C(/O)c2cnn(-c3ccccc3)c2C)C1c1cccnc1 (stereo not drawn)	97.2	-8.2

In the list so far, these contain an NH in an aromatic ring.
SMILES	RmlC RmlD mix	RmlC RmlD mix retest
CC(=O)NCCc1nc2ccccc2[nH]1	160.6	-10.1
Cc1cc(OCc2nn[nH]n2)c2c3c(c(=O)oc2c1)CCC3	54.3	34.8
COC(=O)Cc1n[nH]c(=S)[nH]c1=O	30.8	-7.2

Shown with bars between the fields: part of the list above
SMILES | RmlC RmlD mix | RmlC RmlD mix retest
Cc1cccc(-n2c(N)cc(=O)nc2SCC(=O)Nc2cc(C)on2)c1 | 51.8 | 2.9
CC(=O)NCCc1nc2ccccc2[nH]1 | 160.6 | -10.1
CCOc1ccccc1CNc1ccc(N2CCOCC2)c(C(=O)O)c1 | 101.5 | -6.7
CN(CCO)c1cc(Sc2nc3ccccc3s2)c2nonc2c1[N+](=O)[O-] | 32.0 | -0.7
CCOC(=O)C1(C)NC(c2ccco2)C2C(=O)N(c3ccc(C)cc3)C(=O)C21 (stereo not drawn) | 87.2 | -1.6
Clc1ccc(-c2cn3cccnc3n2)cc1 | 39.7* | 82.9*
CCOc1cc(-c2cc(-c3ccc(C)cc3)nc(N)c2C#N)ccc1O | 30.4* | 73.0*
Cc1cc(OCc2nn[nH]n2)c2c3c(c(=O)oc2c1)CCC3 | 54.3 | 34.8
COc1ccc(CN(CC(=O)NCc2ccco2)C(=O)CCC(=O)Nc2nccs2)cc1 | 142.5 | -2.6
Cn1c(CCc2ccccc2)nnc1SCC(=O)N1CCCC1 | 34.6 | -5.2
COc1ccc(/C=C2/SC(c3ccc(C)cc3)=NC2=O)cc1OC | 45.1 | 4.8
COCC(C)OC(=O)c1c(N)n(CC(C)C)c2nc3ccccc3nc12 (stereo not drawn) | 136.1 | 22.3
C=CCn1c(SCC(=O)Nc2cccc3ccccc23)nc(O)c(CC)c1=O | 95.7 | -5.0
O=C(NCCC1=CCCCC1)c1coc(=O)c(Br)c1 | 61.0 | 8.0
O=C1CCCCCC1C1(O)C(=O)Nc2ccccc21 (stereo not drawn) | 61.2 | -12.5
C#CCOCCOCCOCCNc1nc(N2CCOCC2)nc(N2CCN(C(=O)[C@H](CCCCN)n3cc([C@@H](N)C(C)CC)nn3)CC2)n1 (stereo partly drawn) | 85.0 | -6.9
Cc1ccccc1OC(C)C(=O)NC1CCCC1 (stereo not drawn) | 75.6 | -10.1
COC(=O)Cc1n[nH]c(=S)[nH]c1=O | 30.8 | -7.2
Cc1ccc(-c2nc3ncccn3c2NC(=O)C2CC2)cc1 | 31.2 | 11.2
CCN(CC)CCN1C(=O)C(=O)/C(=C(/O)c2cnn(-c3ccccc3)c2C)C1c1cccnc1 (stereo not drawn) | 97.2 | -8.2

Later entries:
SMILES	RmlC RmlD mix	RmlC RmlD mix retest
Cc1cccc(OCc2nnc(SCC(=O)N3CCCC3)n2C)c1	56.9	-2.5
NC(=O)[C@H]1CC2(CC(c3cccc(NC(=O)CC(c4ccccc4)c4ccccc4)c3)=NO2)CN1C(=O)C(c1ccccc1)c1ccccc1 (stereo partly drawn)	68.6	-9.8
Cc1nc(C(=O)Nc2ccc(Cl)cc2)nn1-c1ccc([N+](=O)[O-])cc1	38.0	0.9
O=C(c1ccc(F)cc1)c1c[nH]c(C(=O)NCCCN2CCOCC2)c1	46.9	2.0
COc1ccc(C(=O)Nc2ccc(S(=O)(=O)N3CCCC3)cc2)c(OC)c1	69.0	-2.3
Cc1ccc(C(C(=O)NC2CCCCC2)N(Cc2ccco2)C(=O)Cn2cnc3ccccc32)cc1 (stereo not drawn)	39.7	-5.4
Cc1cccc(N2C(=O)CC(N3CCN(c4cccc(C(F)(F)F)c4)CC3)C2=O)c1 (stereo not drawn)	125.9	-5.5
O=C(Nc1cccc(-c2cn3cccnc3n2)c1)c1ccc(Br)o1	54.6*	108.9*
CC(NC(=O)CN1CCC(C(N)=O)CC1)c1ccccc1 (stereo not drawn)	43.1	-4.3
CCc1cc(-c2n[nH]c(=S)n2C(C)c2ccccc2)cs1 (stereo not drawn)	39.4	1.5
C=CCOc1ccc(C2OC34CCCCC3C(C#N)(C#N)C2(C#N)C(=N)O4)cc1 (stereo not drawn)	60.5*	123.5*
c1ccc2c(c1)CCCN2Cc1nnnn1C1CCCC1	181.3	-10.0
CCOC(=O)Nc1sc(C)nc1-c1ccccc1	36.5	4.1
COc1ccc(Nc2ncc(C(=O)N3CCN(c4ccccc4OC)CC3)c3ccccc23)cc1	36.1	-11.8
Cc1oc2c(CN3CCCC3)c(O)ccc2c(=O)c1-c1ccc(Br)cc1	36.2	20.5
CCn1c2ccccc2c2cc(NC(=O)Cc3ccc(S(=O)(=O)N4CCOCC4)s3)ccc21	66.0	-10.2
CN1C2CCC1CC(OC(=O)c1cc(Cl)cc(Cl)c1)C2 (stereo not drawn)	31.1	-2.6
CCOc1ccccc1C(=O)N(C)Cc1cc2cc(OC)ccc2[nH]c1=O	30.2	28.3
COc1cccc(-c2cc3nc4c(c(N5CCC6(CC5)OCCO6)n3n2)CCCC4)c1	123.8	-3.1
CC(=O)n1cc([C@H]2C=C(C(=O)N3CCOCC3)O[C@@H](OCc3ccc(CO)cc3)C2)c2ccccc21	31.1	0.9
CSc1nnc(-c2cc3c(-c4ccccc4)nn(C)c3s2)n1C	42.7	-10.0
CCC(C)/C=C(C)/C=C/C1=CC2=C(Cl)C(=O)C(C)(OC(C)=O)C(=O)C2=CO1 (stereo not drawn)	32.5*	32.5*
CCCCCOC(=O)c1ccc(N2C(=O)C3C4C=CC(C4)C3C2=O)cc1 (stereo not drawn)	65.6	17.7
Cc1cc(Nc2nc3ccccc3nc2Cl)n(-c2ccccc2)n1	162.2	0.4
O=C(NC[P+](=O)O)OCc1ccccc1	30.0	14.8
O=C(Nc1ccccc1N1CCCCC1)c1ccc(F)cc1	58.6	-8.5
CN(C1CCCCC1)S(=O)(=O)c1ccc(S(=O)(=O)N2CCCC2)cc1	74.8	6.0
CCCn1c(Cc2ccccc2)n[nH]c1=S	30.7	-3.3
O=C(NCc1ccccc1)c1sc(=S)n2c1[nH]c(=O)c1ccccc12	131.4	12.3
CCN(CC)C(C(=O)Nc1ccc(C(C)C)cc1)c1ccc2c(c1)OCO2 (stereo not drawn)	101.8	0.1
O=C(OCc1ccccc1)c1ccc2c(c1)-c1ccccc1C2=O	74.8	0.5
CCNC(=O)CC1SC(=Nc2cccc(Cl)c2C)N(C)C1=O (stereo not drawn)	50.9	3.5
CC1CCN(C(=O)CSc2nnc(CN3CCOCC3)n2-c2ccccc2)CC1	i	-13.7
Cc1cc(=O)oc2cc(OCC(=O)OCC(=O)NCc3ccc4c(c3)OCO4)ccc12	36.7*	49.7*
Cc1ccc(S(=O)(=O)NC(C(=O)OCC(=O)NC2CCS(=O)(=O)C2)C(C)C)cc1 (stereo not drawn)	91.2	-0.2
COC(=O)c1cn(C(=O)OC)c2ccccc12	59.3	2.5

Not all compounds are listed; count on the stated rates, not on these rows.
